Bfl-1 A1 inh = inhibitors of the anti-apoptotic protein A1, read as caspase activation | MEF A1-2A-BIM cells, Caspase-Glo 3/7 luminescence, 3 h; percent of clofoctol response, vehicle zero | caspase activation, % (no concentration beside the values) | 330,000 compounds, 0.066% hits | AID 2462;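 active means over half of replicate activation scores above 10%, or exactly half above 10 with the replicate mean above 10; inconclusive means replicate mean below 10 yet half the replicates above 10; inactive means over half of replicates below 10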;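 further: wells of about 30 µL received 50 nL stock; many hits fall short of the cut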
UCH37 DUB inh = human UCH37 deubiquitinating enzyme inhibition. Q9Y5K5. purified proteasome/UCH37, Ub-AMC cleavage fluorescence. inhibition, % (no concentration beside the values). 330,000 compounds, 0.33% hits. AID 588478;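 active means mean of two replicates above 20%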;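 further: 0% = compound-free wells with enzyme and 100% = wells lacking proteasome; stock transfer was 100 nL into about 20 µL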
Target sequence (Q9Y5K5 whole entry, looked up): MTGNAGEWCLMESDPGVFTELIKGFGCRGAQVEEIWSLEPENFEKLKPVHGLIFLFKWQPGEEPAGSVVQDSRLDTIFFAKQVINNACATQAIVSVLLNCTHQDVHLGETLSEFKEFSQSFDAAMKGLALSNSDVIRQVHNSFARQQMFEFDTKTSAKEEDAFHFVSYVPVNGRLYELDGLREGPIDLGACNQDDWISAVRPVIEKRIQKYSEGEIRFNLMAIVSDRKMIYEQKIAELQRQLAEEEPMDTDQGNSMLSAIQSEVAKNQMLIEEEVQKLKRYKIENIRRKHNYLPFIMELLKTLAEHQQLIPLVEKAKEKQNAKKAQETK
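assay system = human UCH37 enzyme supplied as purified proteasome complex | amount = proteasome at 0.15 nM in the dispensed enzyme solution | schedule = 30 min compound-proteasome preincubation then 25 min substrate reaction, room temperature | measured by = fluorescence, ex 355 nm, em 460 nm | benchmarks = no-proteasome wells (full inhibition) and compound-free wells (no inhibition)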
Calb FLC = affects C. albicans growth with fluconazole; C. albicans CaCi-2 (fluconazole-resistant clinical isolate) + fluconazole, Alamar Blue growth, 48 h; growth inhibition, % (test concentration not listed); 300,000 compounds, 0.57% hits;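 active means most replicates above 75%; inconclusive means exactly half above 75%; inactive means most below 75%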;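 further: all wells also contain fluconazole at 8 µg/ml as a sub-toxic cotreatment; 0% = median of DMSO wells and 100% = median of geldanamycin control wells; wells of about 8 µL received 7.5 nL stock; the first replicate is given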
RanGTP-Imp inh = inhibitors of RanGTP-importin-beta interaction, primary screen, biochemical, FRET, CFP-Ran, YFP-importin-beta, homogeneous; cell-free CFP-Ran/YFP-importin-beta FRET ratio; inhibition, % (test concentration not listed); 300,000 compounds, 1.1% hits;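 active means most replicates above 15%; inconclusive means exactly half above 15%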;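 further: 0% = DMSO wells and 100% = Ran loaded with GDP instead of GTP; wells of about 40 µL received 100 nL stock; the first replicate is given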
Beta apoptosis = blocks beta cell apoptosis | INS-1E cytokine-induced death, ATP luminescence, 48 h; percent of positive-control rescue, neutral wells zero | protection from apoptosis, % (concentration not given with the values) | 300,000 compounds, 0.8% hits | AID 435005;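 active means all replicates at 75% or more, or half of them and the mean; inconclusive means half reach 75% but not the mean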;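 further: 0% = cytokine-treated negative control wells and 100% = positive control rescue; higher means more ATP so stronger rescue from cytokine killing; wells of about 40 µL received 100 nL stock; the first replicate is given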
LANA-H2A inh = blocks KSHV LANA binding to histone H2A/H2B; Q9QR71; cell-free LANA-H2A/H2B peptide, fluorescence polarization; inhibition, % (test concentration not listed); 320,000 compounds, 0.6% hits; AID 2629; in the data active means inhibition mostly above about 10%, no sharp cut-off; inactive means mostly below about 6.7%;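 further: stock transfer was 7.5 nL into about 10 µL; 0% = median of vehicle wells and 100% = median of positive control wells; one replicate is shown; the record names a cut of 25% in any replicate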
Beta2AR agonist = human beta-2 adrenergic receptor agonism by FAP | Am2.2-beta2AR cells, FAP receptor internalization, flow cytometry; reference of the scale not given here | response, % (no concentration beside the values) | 340,000 compounds, 0.43% hits | AID 504454;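 active means response above a set limit, near 3 SD of response in nonfluorescent compounds, cut at about 42% in these data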;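 further: stock transfer was 100 nL into about 11 µL; a reference agonist was the positive control; negative values mostly stem from fluorescent compounds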
Target sequence (P07550 whole entry, looked up): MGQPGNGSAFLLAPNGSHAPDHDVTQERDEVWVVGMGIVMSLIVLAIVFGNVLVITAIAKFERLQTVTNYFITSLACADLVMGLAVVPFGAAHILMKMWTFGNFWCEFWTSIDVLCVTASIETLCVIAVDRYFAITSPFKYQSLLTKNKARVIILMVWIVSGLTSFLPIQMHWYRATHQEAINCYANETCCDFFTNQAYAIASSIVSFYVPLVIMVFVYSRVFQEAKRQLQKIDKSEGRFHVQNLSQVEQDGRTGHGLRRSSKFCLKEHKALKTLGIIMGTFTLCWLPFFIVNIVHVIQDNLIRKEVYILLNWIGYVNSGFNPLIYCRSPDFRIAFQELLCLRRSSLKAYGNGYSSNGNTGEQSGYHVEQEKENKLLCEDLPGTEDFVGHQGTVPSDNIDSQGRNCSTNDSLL
T cruzi inh = T. cruzi replication inhibition. T. cruzi beta-gal in NIH3T3, luminescence, 90 h. inhibition, % (concentration not given with the values). 300,000 compounds, 1.4% hits;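 active means mean inhibition across valid replicates above about 55%, limit read from the data; inconclusive means mean below that limit but half or more replicates reach it; inactive means mean below it, under half of replicates reach it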;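 further: signal also drops with host cell toxicity which is not excluded here; 0% = plate median of DMSO wells and 100% = zero luminescence signal; higher percent means less beta-gal luminescence so fewer parasites; stock transfer was 50 nL into about 50 µL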
* = called active by the depositor; i = inactive; ? = inconclusive; · = not tested or not shown.

Screens in order: Bfl-1 A1 inh	UCH37 DUB inh	Calb FLC	RanGTP-Imp inh	Beta apoptosis	LANA-H2A inh	Beta2AR agonist	T cruzi inh
1	CCN(CC)CCNC(=O)Cc1nn(CC)c(=O)c2ccccc12
  -0.5	3.1	-2	?	-3	-2.0	10	3
2	CC(CO)Nc1nc(SCc2ccccc2)nc2sc3c(c12)CCC3 (stereo not given)
  0.9	3.5	-6	3.5	1	-1.3	4	40
3	Cc1ccc(S(=O)(=O)N(C)C)cc1NC(=O)CSc1ncn[nH]1
  0.7	1.7	-5	-2.9	-5	-5.0	-5	-7
4	COc1ccc(CCNC(=O)c2cc([N+](=O)[O-])ccc2N2CCOCC2)cc1
  0.7	6.9	15	-2.4	-2	5.8	-4	6
5	CC(C)[C@H](NS(=O)(=O)/C=C/c1ccccc1)C(=O)OCC(=O)NC(N)=O
  0.5	3.2	0	0.5	3	2.9	5	-8
6	Cc1ccccc1C(OCC(O)CN1CCC(C(N)=O)CC1)c1ccccc1 (stereo not given)
  0.2	1.0	2	-0.9	-3	-0.2	0	-10
7	Fc1ccc(NC(=S)NCc2ccccc2Cl)cc1
  3.0	1.4	-18	-0.1	·	0.7	1	11
8	COc1cccc(OC)c1C(=O)Nc1nc2ccc([N+](=O)[O-])cc2s1
  0.7	21*	4	0.9	1	-16	-1	6
9	Cc1nn(-c2ccc(C(F)(F)F)cn2)c(C)c1Oc1ccccc1O
  0.3	0.6	9	3.9	-7	-2.5	-4	-3
10	C#CCn1c(=NC(=O)c2ccc(Br)s2)sc2cccc(OC)c21
  -0.7	-30	-18	?	13	1.0	-4	36
11	COc1cc(/C=C/CN2CCN(CCC(C)C)C(CCO)C2)ccc1O (stereo not given)
  0.9	2.3	-19	1.0	-5	-2.8	6	2
12	c1ccc(-c2cc(-c3ccc(N4CCOCC4)cc3)nc3ccccc23)cc1
  -0.1	i	17	-2.0	-3	-12	-15	3
13	COc1ccc(CN2C(=O)CCC2(C)C(=O)NC2CCCCC2)c(OC)c1 (stereo not given)
  -0.4	·	-19	?	-3	-0.8	4	1
14	O=C(CCCn1c(=O)c2sccc2n(Cc2cc(=O)n3ccccc3n2)c1=O)NCc1ccco1
  0.3	-25	-2	-2.7	-4	0.6	-14	1
15	CC(O)CNc1nc(NCc2ccccc2)c2cnn(C)c2n1 (stereo not given)
  -1.1	-3.9	33	2.9	-6	-2.0	0	4
16	CCOC(=O)/C(=C/c1c[nH]c2ccccc12)NC(C)=O
  -0.4	13	-9	-0.4	-4	-1.7	·	-10
17	CCc1cccc2c(C(=O)CN3C(=O)NC4(CCc5ccccc54)C3=O)c[nH]c12 (stereo not given)
  0.8	0.3	-10	2.4	·	-1.5	17	32
18	CC1CC1C(=O)Nc1nc(-c2ccccn2)cs1 (stereo not given)
  -4.0	1.8	-3	-0.5	-1	-1.6	-3	0
19	COc1ccc(CCNC(=O)C2CCCN(c3ncccn3)C2)cc1 (stereo not given)
  0.1	-3.3	2	4.2	1	1.8	14	-5
20	O=C1C2CC(O)CN2C(=O)N1c1ccccc1 (stereo not given)
  0.9	0.1	-8	?	·	-0.9	6	3
21	O=C(O)/C=C\C(=O)NCc1ccccc1
  0.2	-1.1	-4	-2.7	-6	-1.7	0	-21
22	Cc1cccc(C(=O)NCC(=O)NC2CCC(C)CC2)c1 (stereo not given)
  -0.7	4.6	-9	2.0	-4	2.4	-4	3
23	Cc1ccc2c(c1)CC(C)N2S(=O)(=O)c1nnc(NC(=O)CC(C)C)s1 (stereo not given)
  0.0	5.6	-4	-3.3	11	4.6	6	-12
24	CCOc1ccccc1N1CC(C(=O)Nc2cc(Cl)ccc2-n2cncn2)CC1=O (stereo not given)
  -0.4	1.1	·	0.3	1	-3.3	-1	0
25	O=C(c1ccco1)N1CCCC(c2nc3c(nnn3Cc3cccc(Cl)c3)c(=O)[nH]2)C1 (stereo not given)
  0.5	6.2	-18	-2.3	-8	-1.8	1	-14
26	S=C(N/N=C/c1ccc2ncccc2c1)Nc1ccccc1
  0.6	·	88*	-0.7	13	-3.3	0	30
27	S=C1NCN(C2CCCCC2)CN1CCc1ccccc1
  -0.2	5.0	-26	-1.1	3	-5.0	-6	·
28	Cc1cc(C)c(S(=O)(=O)N(C)CC(=O)NCc2ccncc2)c(C)c1
  -0.2	·	-5	-1.3	8	-4.0	2	-9
29	CC(C)C[C@H](N)C(=O)N1CCC(C(=O)N[C@H](C(=O)NC(C)c2ccccc2)C(C)C)CC1 (stereo not given in full)
  0.5	-0.1	-7	-1.2	-6	-5.2	3	-15
30	Fc1ccc2cnc(CCO[C@H]3CCCCO3)cc2c1
  -0.2	2.1	·	·	5	-0.8	-6	·

Among those listed so far, these contain a nitro group on carbon:
Screens in order: Bfl-1 A1 inh	UCH37 DUB inh	Calb FLC	RanGTP-Imp inh	Beta apoptosis	LANA-H2A inh	Beta2AR agonist	T cruzi inh
4	COc1ccc(CCNC(=O)c2cc([N+](=O)[O-])ccc2N2CCOCC2)cc1
  0.7	6.9	15	-2.4	-2	5.8	-4	6
8	COc1cccc(OC)c1C(=O)Nc1nc2ccc([N+](=O)[O-])cc2s1
  0.7	21*	4	0.9	1	-16	-1	6

Further results.
Screens in order: Bfl-1 A1 inh	UCH37 DUB inh	Calb FLC	RanGTP-Imp inh	Beta apoptosis	LANA-H2A inh	Beta2AR agonist	T cruzi inh
31	Cc1ccc(NC(=O)Cc2nnc(SCC(=O)Nc3nncs3)n2C)cc1
  0.8	2.9	-1	-1.6	-14	2.8	8	9
32	CSc1cccc(NC(=O)CCNS(=O)(=O)c2ccc3[nH]c(=O)oc3c2)c1
  -1.4	-0.4	9	0.2	-6	2.7	1	-11
33	Cc1ccccc1C(=O)c1cccn1CC(=O)NCc1ccco1
  0.3	-3.7	16	-1.5	1	0.8	-2	10
34	CCOc1cc(N2CCOCC2)c(OCC)cc1NC(=O)CN1C(=O)C2C3C=CC(C3)C2C1=O (stereo not given)
  0.3	2.9	34	2.3	3	0.3	-5	-10
35	CN1CCN(C(=O)c2ccc(CN(c3ccccc3)S(=O)(=O)c3ccccc3)cc2)CC1
  -0.7	-1.9	1	?	-3	-8.6	8	-5
36	O=C(CCCn1c(=S)[nH]c2ccsc2c1=O)NC1CCCCC1
  -0.6	0.8	0	6.8	8	3.7	-5	-4
37	CCOc1cc2[nH]c(=O)n(Cc3ccccc3)c(=O)c2cc1OCC
  0.0	-4.8	0	1.6	·	1.7	-2	0
38	CN1CCN(Cc2c(O)ccc3c2oc(=O)c2ccccc23)CC1
  0.4	-2.8	32	1.7	6	-1.2	6	10
39	COc1ccc(N2C(=O)CSC23C(=O)N2CCCc4cccc3c42)cc1 (stereo not given)
  0.5	2.3	49	-1.5	4	-6.4	7	5
40	CC(=O)c1sc2nc(-c3ccccc3)cc(C)c2c1N
  -0.1	-25	-28	2.9	8	-7.5	-9	56*
41	O=C(N/N=C/c1cccn1-c1cccc(C(=O)O)c1)Nc1ccccc1
  -0.4	·	-4	2.8	-3	1.7	-4	-19
42	Cc1ccc(S(=O)(=O)N(C)/N=C/c2ccc(N(C)C)cc2)cc1
  2.0	·	-1	3.9	-8	0.8	-4	10
43	CC(=O)N1CCN(S(=O)(=O)c2cccc(C(=O)Nc3ccc(F)c(F)c3)c2)CC1
  1.0	0.1	3	0.2	5	1.5	2	39
44	Cc1ccc(S(=O)(=O)ON=C2CCN(S(=O)(=O)c3ccccc3)CC2)cc1
  0.8	2.2	0	0.9	-3	2.1	1	-3
45	COC(=S)Nc1cccc(C(F)(F)F)c1
  -0.2	1.6	4	-0.6	-9	0.1	-11	-7
46	CC1CC(C)(C)NC(=S)S1 (stereo not given)
  1.3	-0.3	-2	1.8	-5	4.3	·	-3
47	O=C(NCC(=O)N(c1ccccc1)C(C(=O)NC1CCCC1)c1ccncc1)c1ccco1 (stereo not given)
  0.6	1.2	-1	9.1	-7	0.0	-4	-7
48	COc1ccc(S(=O)(=O)n2nc(OC(=O)c3cccs3)cc2NC(=O)c2cccs2)cc1
  0.6	4.7	-5	2.7	-5	-3.0	4	-10
49	CCC1CCCCN1C(=O)CCn1ccnc1 (stereo not given)
  -1.5	2.8	5	-3.2	-5	5.4	-8	-6
50	COc1ccc(C)cc1S(=O)(=O)N(CC(=O)Nc1cc([N+](=O)[O-])ccc1C)c1ccc(C)c(C)c1
  1.0	4.7	-2	-1.8	-9	2.6	-1	21
51	COC(=O)c1cccc(OC(N)=O)c1
  0.7	1.7	12	-0.4	-3	1.2	·	-23
52	CCOC(=O)Cc1csc(NC(NC(=O)OCC)(C(F)(F)F)C(F)(F)F)n1
  0.9	5.1	-14	-0.8	-8	-0.7	3	6
53	CCc1nc(=O)c(-c2ccccc2)c(C)n1-c1ccccc1
  0.3	-2.0	-9	-0.3	-10	1.3	-1	-18
54	O=C(O)c1ccc([N+](=O)[O-])c2c1C(=O)c1ccccc1C2=O
  -1.0	5.6	33	-0.4	·	0.1	2	8
55	COc1ccc(Nc2cc(Cl)nc(N)n2)cc1OC
  -0.7	0.7	4	18*	-6	-6.2	-1	-1
56	CC(=O)Nc1cc(C(=O)c2ccccc2)ccc1N1CCOCC1
  -0.6	9.2	-13	-3.2	5	-2.2	-8	-2
57	CC1(C)CC(=O)C2=C(C1)OC(/N=C/N1CCOCC1)=C(C#N)C2c1ccccc1 (stereo not given)
  -0.4	·	33	2.6	-4	2.9	-9	1
58	COC(=O)c1c[nH]n2c(=O)cc(CCl)nc12
  0.3	-2.2	1	8.1	4	1.5	-7	-18
59	Cc1ccc(NC2c3ncccc3C(=O)N2C2CCCCC2)cc1 (stereo not given)
  -0.2	3.7	36	-1.3	-1	-12	-11	-8
60	COc1ccc2c(C)cc(C)nc2n1
  0.6	4.6	5	-1.0	-2	-4.6	-5	-9

Source: PubChem BioAssay
